Bioassay records: PubChem, several laboratories
Autofluor counter – flagged as autofluorescent in microsphere protease counterscreen; compound autofluorescence counterscreen, microsphere flow cytometry; hits give high values; fluorescence intensity (concentration not given with the values); 360,000 tested, 3.1% active;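 active means at least 3 SD above the mean of all compounds, about 16000 in these data; inconclusive means too few beads counted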;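 further: 100 nL of 1 mM stock went into each well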
Mtb hypoxia inh – PubChem AID 1159583 | 300,000 tested, 0.1% active | fluorescence inhibition, % (no concentration beside the values) | M. tuberculosis hypoxia-regulated fluorescent reporter, fluorescence;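 active means 35 to 45% if threefold the growth effect, above 45% if 1.5-fold the growth effect; inactive means the rest, general growth blockers included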;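 further: wells of about 50 µL received 100 nL stock; 0% = vehicle wells and 100% = reference inhibitor wells; whole bacteria with a GFP reporter of the hypoxia response; strong numbers were not always called active; many hits fall short of the cut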
BJeLR lethal – MLPCN primary cell-based screen for lethality selective to Ras in HRASV12 cells. BJeLR (HRASV12) viability, CellTiter-Glo ATP luminescence, 48 h; reference of the scale not given here. 300,000 tested, 0.17% active. inhibition, % (concentration not given with the values). AID 1554, 2009;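 active means replicate mean above 50%; inconclusive means above 50% but judged a plate artefact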;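 further: 50 nL library stock added to about 25 µL; numbers are from one replicate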
Sa ugtP lethal – growth inhibition of ugtP-null S. aureus, primary screen, RN4220 ugtP deletion, OD600. 16 h; some inactives read as strong as hits. growth inhibition, % (test concentration not listed). 330,000 tested, 0.54% active;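 active means z-score under -3 and OD600 up to 0.15 on both plates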;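 further: plate controls were untreated wells for no effect and antibiotic for full effect; wells of about 80 µL received 100 nL stock; the first replicate is given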
RN4220 kill – growth inhibition of S. aureus RN4220, primary screen, OD600; 16 h; 330,000 tested, 0.33% active; inhibition, % (no concentration beside the values);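 active means z-score of -3 or lower and OD600 up to 0.18 on both plates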;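 further: plate controls were untreated cells for no effect and reference antibiotic for full effect; stock transfer was 100 nL into about 80 µL; one replicate is shown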
PrP 5UTR inh – inhibition of PrP 5' UTR reporter expression; 340,000 tested, 0.35% active; cell-based PrP 5' UTR mRNA reporter, plate reader; inhibition, % (test concentration not listed);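 active means every replicate at 50% or more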;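 further: 0 = median of the neutral control wells; tested in H4 reporter cells; numbers are from one replicate; inactives centre near -14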
Mtb hypoxia inh growth – also measured in Mtb hypoxia inh; calls as there; growth inhibition, %; measured here: M. tuberculosis growth (absorbance);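 0% = vehicle and 100% = reference antibiotic; read after six days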
The depositor's hits bear a star; u = inconclusive; x = no result given; & = joins results of further samples.

nr	structure	Autofluor counter	Mtb hypoxia inh	Mtb hypoxia inh growth	BJeLR lethal	Sa ugtP lethal	RN4220 kill	PrP 5UTR inh
1	COc1cc(S(=O)(=O)Nc2ccc3cn[nH]c3c2)ccc1Cl	3720	3	-1	-4	-4	4.0	-7
2	CC(=O)Nc1ccc(NC(=O)c2ccc(C)c(S(=O)(=O)Nc3cccc(C)c3)c2)cc1	3447	9	8	11	4	6.2	11
3	NS(=O)(=O)c1ccc(CNC(=O)c2cc(=O)c3ccccc3o2)cc1	4056	0	-2	3	5	2.3	-25
4	CC(C)(C)c1nc(SCC(=O)NC2CCCC2)c2ccccc2n1	6040	-6	2	6	-4	-0.9	10
5	CCOC(=O)c1ccccc1NC(=O)CN1C(=O)CCS(=O)(=O)c2ccccc21	3452	16	13	-1	-6	-16	0
6	Cc1nn(C)c(C(=O)N/N=C/c2ccc(Br)cc2)c1Cl	2077	x	x	4	x	x	-12
7	OCC1CCN(Cc2cn(Cc3ccccc3)nc2-c2cc3ccccc3o2)CC1	4149	13	5	7	0	0.3	1
8	C/C(CCc1ccc2c(c1)OCO2)=N\N=C1\NC(=O)CC(C(=O)Nc2ccc(Cl)cc2)S1 (centres undefined)	21037*	x	x	5	x	x	-41
9	CCOC(=O)c1nnn2c1nc(N1CCOCC1)c1ccccc12	5474	2	6	-3	-3	-0.5	x
10	CC(=O)Nc1ccc(NC(=O)c2c([N+](=O)[O-])cnn2C)cc1	4149	-15	7	-1	0	-0.3	2
11	COC(=O)[C@@H](NC(=O)N(C1CCCCC1)C1CCCCC1)C(C)C	15838	3	5	-18	6	6.4	-35
12	O=C(O)CSc1ccccn1	2709	x	x	7	3	-2.0	-17
13	CCC1(C)Cc2ccccc2-c2nc(NCCCO)n(C)c(=O)c21 (centres undefined)	6877	5	8	-3	0	9.0	-7
14	CCOc1ccc(-c2c(C(=O)NN=C(C)c3ccccc3OC)nnn2-c2nonc2N)cc1	x	-7	-6	x	7	-0.7	x
15	Cc1ccc(C(=O)C[n+]2cc(-c3ccc(C)cc3)n3c2CCCCC3)cc1	22561*	10	20	37	-13	6.6	13
16	CCSC(=O)NC1CCCCC1	x	-9	-6	-1	3	-1.0	x
17	O=C(COC(=O)Cc1cccc(C(F)(F)F)c1)NCC1CCCO1 (centres undefined)	12179	7	1	-4	5	5.6	-7
18	CC(=O)Nc1ccc(S(=O)(=O)N2CCC(C(=O)c3ccc(Cl)cc3)CC2)cc1	2928	0	2	3	-3	-2.5	4
19	CCc1ccc(CNC(=O)c2ccc3nc(C4CCCCC4)oc3c2)nc1	u	x	x	1	x	x	-37
20	CCOc1ccc(NC(=O)Cn2nc(-c3ccccc3Cl)n(CC)c2=S)cc1	3313	8	9	0	17	3.2	-2
21	CCN(CC(=O)Nc1ccc(NC(C)=O)cc1)C(=O)/C=C/c1ccc(C)o1	4177	4	4	x	3	2.0	-11
22	COc1ccc(CCN(C)C(=O)C2CCCN(Cc3ccc(OC)c(OC)c3)C2)cc1OC (centres undefined)	2576&4942	9	5	2&1	8&-1	3.3&3.2	-17&-31
23	Cc1ccccc1CN1C(Cc2ccccc2)COCCS1(=O)=O (centres undefined)	x	7	4	x	-20	12	x
24	O=C(CSc1n[nH]c(=O)n1C1CC1)Nc1ccc(F)c([N+](=O)[O-])c1	u	9	8	x	6	1.4	-9
25	O=C(Nc1cccc(C(=O)N2CCOCC2)c1)c1cncc(Br)c1	4601	x	x	0	7	1.3	-8
26	COC(=O)[C@]1(CC(C)C)N[C@H](c2ccc(-c3ccc(F)cc3)cc2)[C@@H]2C(=O)N(C)C(=O)[C@@H]21	3629	x	x	2	x	x	-10
27	Clc1ccc2nc(N3CCCCC3)[nH]c2c1	11040	8	3	-3	7	6.4	-55
28	COC(=O)C1CCN(CC(=O)Nc2ccc(C(=O)Nc3ccccc3OC)cc2)CC1	2977	3	1	x	7	2.4	-1
29	CCOc1cc(CNCCc2c[nH]c3ccccc23)cc(Cl)c1OC	3700	0	4	7	-6	-17	-12
30	O=C1CC(c2ccc(F)cc2)Sc2nc(-c3ccccc3)c(-c3ccccc3)n21 (centres undefined)	1898	2	10	-7	-6	-4.9	-13
31	CCN(CC(=O)Nc1ccc(OC)cc1)C(=O)CCc1nc2ccccc2c(=O)[nH]1	u	5	5	-3	-4	-1.3	2
32	CC(C)NC(=O)C12CC3CC(C1)CC(n1cnc(Cl)n1)(C3)C2	3411	8	4	-5	6	5.9	-16
33	Cc1ccc(SCC(=O)OCC(=O)NC2CCCCCC2)cc1	5837	-5	-6	5	10	4.0	-6
34	CC1CCCN(C2(O)C(=O)Nc3ccc(Br)cc32)C1 (centres undefined)	3419	12	13	4	2	4.0	-4
35	Cc1cccc(C)c1NC(=O)c1c(-c2ccccc2)noc1C	10366	5	10	0	-1	3.9	9
36	COc1ccc(NC(=O)CCN2CCN(c3ccc(F)cc3)CC2)cc1	2941	-15	-1	-3	2	0.0	-14
37	Cc1cccc(CNC(=O)c2ccccc2N)c1	6202	0	1	4	1	1.6	-15
38	CCCCc1cn(C[C@H]2CC[C@@H]([C@@H]3CC[C@H](Cn4cc(CCCC)nn4)O3)O2)nn1	3656	x	x	1	x	x	-17
39	Cn1c(SCC(=O)N2CCN(c3ccccc3)CC2)nnc1-c1ccncc1	3570	x	x	2	-4	-2.0	-6
40	CCCC(NC(=O)CCc1c(C)c2cc3c4c(oc3c(C)c2oc1=O)CCCC4)C(=O)O (centres undefined)	3092	1	6	6	0	9.6	0
41	NCCc1ccc(S(N)(=O)=O)cc1	4743	-1	1	2	4	-0.5	-41
42	CCN(CC)c1ccc(S(=O)(=O)N2CCCCC2)cc1NC(=O)C1CCC1	u	6	10	-2	8	4.0	-6
43	Cc1ccc(-c2nc(CCN3C(=O)c4ccccc4C3=O)cs2)cc1	23490*	5	14	8	-7	5.2	-11
44	CC(=O)Nc1ccc(Nc2nc3ccccc3nc2NS(=O)(=O)c2ccc(Cl)c([N+](=O)[O-])c2)cc1	5211	5	-4	x	6	8.6	-14
45	Cc1ccccc1-c1nc2sc3c(c2c(=O)o1)CCC3	2468	18	3	-5	15	17	-15
46	COc1ccccc1N1CCN(S(=O)(=O)c2c(C)sc3ncn(CC(=O)NCCN(C)C)c(=O)c23)CC1	2890	3	4	-2	9	-0.9	-29
47	O=C(CCC(=O)OCc1cccc(C(=O)Oc2ccccc2)c1)Nc1cccc2ccccc12	8297	1	8	-6	-1	2.4	x
48	CNC(=O)NC(=O)C(OC(=O)CCNS(=O)(=O)c1ccccc1)c1ccccc1 (centres undefined)	18283*	11	17	-1	5	0.7	-2
49	CN(C)c1ccc(N=Nc2ccccc2C(=O)OCC(=O)NC2CCCC2)cc1	2336	1	0	10	-1	-0.3	-25
50	Cc1c(C(=O)N2CCCCC2)c(S(=O)(=O)NCc2ccc(N(C)C)cc2)c(C)n1C	5727	14	3	-6	8	1.6	-8

The list goes on:
nr	structure	Autofluor counter	Mtb hypoxia inh	Mtb hypoxia inh growth	BJeLR lethal	Sa ugtP lethal	RN4220 kill	PrP 5UTR inh
51	CCN=C1SC(CC(N)=O)C(=O)N1CC (centres undefined)	4541	13	-2	-2	5	4.6	-9
52	Cc1cc(C(=O)NN=Cc2cc(Cl)cc([N+](=O)[O-])c2O)c2ccccc2n1	x	10	3	x	4	14	x
53	CCN(C(=O)COC(=O)C1CC1)c1c(N)n(Cc2ccccc2)c(=O)[nH]c1=O	4708	-2	1	x	-3	2.1	-24
54	O=S(=O)(c1ccccc1)N1CCN(C2CCN(Cc3ccccc3)CC2)CC1	4334	x	x	-7	1	-0.8	-8
55	CC1(C)Cc2c(c(N3CCCCC3)[nH]c(=S)c2C#N)CS1	x	-4	-6	2	-4	-13	-4
56	CN(C)c1ccc(-c2n[nH]c(=S)n2-c2ccccc2)cc1	3745	2	10	-5	-2	4.8	28
57	C=CCOc1ccccc1CNn1nnnc1N	10471	3	2	2	-7	1.0	-13
58	Cc1ccc(C)n1-n1c(C)nc2sc(-c3ccccc3)cc2c1=O	3400	5	18	6	7	-11	-36
59	CC(C)(C)c1ccc(-c2n[nH]c(=S)n2CC2CCCO2)cc1 (centres undefined)	4926	16	8	4	7	4.7	2
60	CCOCCOC(NC(=O)c1ccccc1)(C(F)(F)F)C(F)(F)F	2067	5	14	-3	3	4.0	1
61	Cc1ccc2occ(C=NNC(=O)c3ccccc3C)c(=O)c2c1	x	3	2	x	7	2.4	x
62	Cc1cccc(OCC(=O)Nc2nccs2)c1C	6487	0	1	-3	-7	5.4	-38
63	O=S(=O)(c1ccc(OCC(O)CN2CCCC2)cc1)N1CCOCC1 (centres undefined)	3624	1	1	6	-4	0.9	-18
64	O=C(OCc1ccco1)c1ccc(S(=O)(=O)N2CCCCC2)cc1	2259	x	x	5	2	1.1	-4
65	Cc1nc(C(N)=O)nc2ccccc12	5653	x	x	3	-9	3.9	-4
66	O=C(OC(C(=O)NCc1ccc2c(c1)OCO2)c1ccc(Cl)cc1)c1ccco1 (centres undefined)	9659	-64	6	3	6	-2.9	-26
67	CCCS/C(N)=N/N=Cc1cc(C)ccc1O	x	-1	-7	x	11	22	x
68	CC(C)NC(=O)CN1CCN(C(=O)c2ccc3oc(CCCc4ccccc4)nc3c2)CC1	5131	-2	1	-2	1	3.1	-6
69	COc1cc(C(=O)NCC(=O)NN=C/C(C)=C\c2ccccc2)cc(OC)c1OC	x	11	0	x	-4	0.8	x
70	Cc1c(C(=O)N/N=C/c2cccnc2)sc(=S)n1C	2209	x	x	0	x	x	-3
71	Clc1ccc(SCc2cn3ccsc3n2)cc1	4527	x	x	-14	8	0.3	-98
72	CCCN(CC(=O)Nc1ccc(C(N)=O)cc1)CC(=O)Nc1ccccc1C	4485	17	-11	2	6	3.1	-16
73	CCS(=O)(=O)N1CCC(C(=O)NCc2ccc(OC)cc2OC)CC1	4412	-7	9	3	9	0.2	-30
74	Cn1c(C(C#N)C(=O)c2ccco2)nc2ccccc21 (centres undefined)	4496	x	x	-2	2	1.5	-37
75	CCN(CC)C(=O)CP(=O)(c1ccccc1)c1ccccc1	4782	x	x	-9	-5	2.6	-22
76	CC(Cc1ccccc1)NC(=O)c1cc([N+](=O)[O-])ccc1Cl (centres undefined)	5186	5	-4	4	12	4.0	-37
77	O=C(NCc1cccc(F)c1)c1noc2c1CCCC2	4868	6	4	-4	10	4.3	-22
78	COc1ccc(S(N)(=O)=O)cc1-c1nnc2c3ccccc3c(C)nn12	3854	15	-5	5	7	-0.7	-18
79	FC(F)(F)c1cc(-c2ccco2)nc(NCc2cccnc2)n1	4088	4	9	-3	-8	5.0	-8
80	Cc1nccc(-c2ccc3c(c2)OCO3)n1	4456	4	8	-5	3	4.8	-14
81	O=C(CSc1nnc2ccccn12)NC(=O)Cc1ccccc1	4286	-9	2	-2	-5	1.1	-10
82	Clc1ccc(Sc2cc(N3CCOCC3)nc(-c3ccccc3)n2)cc1	3139	2	-1	-18	22	-4.8	-5
83	CC(C)n1c(SCC(N)=O)nc2c1c(=O)[nH]c(=O)n2C	2955	x	x	1	17	11	-15
84	CCOC(=O)c1c(NC(=O)CSc2nnc(CNc3ccc(C)cc3C)o2)sc(C)c1C	x	6	9	2	-28	-7.5	-9
85	Cn1ccnc1SCc1cccc([N+](=O)[O-])c1	5183	-4	1	-9	6	6.7	-26
86	Clc1ccc(CSc2nnc(-c3ccc4c(c3)OCO4)o2)cc1	2686	x	x	8	7	1.4	-14
87	CC(=O)Nc1ccc(C)c([N+](=O)[O-])c1	2355	10	1	1	0	4.7	-30
88	Cc1c2cnn(CC(=O)NCCCN3CCCCC3)c(=O)c2c(C)n1Cc1ccccc1	7854	1	4	9	4	6.4	-17
89	O=Cc1c(-c2ccccc2)cc2oc3ccccc3cc1-2	3554	17	7	1	7	0.3	-60
90	CCOC(=O)c1ccc(NC(=O)c2ccccc2)cc1	10599	-5	-14	0	-6	0.3	-82
91	Cc1ccc(SC(C)C(=O)Nc2ccc(S(=O)(=O)N3CCOCC3)cc2)cc1 (centres undefined)	6356	7	17	6	1	1.8	-24
92	O=C(C=Cc1ccc(F)cc1)NC(=S)N1CCOCC1	x	9	-1	x	-9	2.3	x
